Compound activity: PubChem BioAssay, National Center for Advancing Translational Sciences (NCATS)
HTT prom inh – inhibits huntingtin promoter activity; 48,000 tested, 0.93% active; HEK293 HTT promoter firefly luciferase reporter (activity 0% = vehicle and -100% = no light), 24 h; AID 1508623; Potency, µM (series often up to 57.5 µM), for inactives: top-dose activity change, negative = inhibition, actives largely listed as inhibitors; active means well fitted inhibition curve with a large enough effect; inconclusive means small, poorly fitted or top-dose-only effect; inactive means no such curve, though single readings can be large or run the other way; further: nearly all actives have a fitted effect of over 50% in size
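HEK293 Fluc reporter, 2,500 cells/well, 24 h pre-culture; cpds up to 57.5 uM final, 24 h 37 degrees C; Dual-Glo, 10 min RT; normalized vehicle = 0%, zero RLU = -100%.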
PMP22 txn – modulators of PMP22 gene transcription in S16 Schwann cells | S16 Pmp22-F2sN Schwann cells (luciferase reporters placed in the Pmp22 gene), FLuc/NLuc coincidence luminescence, 24 h | Potency, µM (highest dose often 57.5 µM), inactives show at the highest dose activity change, negative = inhibition, actives largely listed as inhibitors | 43,000 tested, 2% active | AID 1508649; active = clear falling dose curves in both reporters; inconclusive = both reporters move, but less clearly or upward; inactive = either reporter flat; the % is the NLuc reporter signal; further: on the % scale 0 is the no-effect control and ±100 the full control effect; some results filed as inactive show a strong effect at the top dose
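S16 Schwann cells carrying FLuc/NLuc coincidence reporter in the Pmp22 3' UTR treated with compound 24 h at 37C; FLuc then NLuc luminescence read sequentially by dual-luciferase reagents.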
Active calls of the source: *; ? = inconclusive; · = no result given; [ ] = another dose, or the depositor's remark. Potency means the concentration at half of the fitted maximal effect.

SMILES	HTT prom inh	PMP22 txn
CCOc1ccc(NC(=O)Cn2c(=O)n(-c3ccccc3)c(=O)c3ccc(C(=O)NCc4ccc5c(c4)OCO5)cc32)cc1	?	?
Cc1ccc(Nc2c(-c3ccco3)nc3ccc(C)cn23)cc1	7%	?
COCCNC(=O)CSc1nc(-c2ccccc2C)nc2c1c(=O)n(C)c(=O)n2C	-2%	-8%
C[N+](C)(C)CCCCCC[N+](C)(C)C	-3%	·
COc1cccc(-c2ccnc3c(-c4ccccc4)c(C)nn23)c1	-2%	?
CC(C)c1ccc(C(=O)Nc2cccc3cccnc23)cc1	45%[activator]	-7%
Cc1ccc(-n2c(=O)c3ccc(C(=O)NCc4ccco4)cc3n(Cc3cccc(Cl)c3)c2=O)cc1	-12%	-25%
Cc1ccc(CSc2nnc3[nH]c(=O)cc(C)n23)cc1	0%	0%
COc1ccc(CCCc2nnc(SCC(=O)Nc3cccc(C)c3)o2)cc1	?	-25%
CCOC(=O)N1CCc2c(sc3c2c(=O)n(-c2ccc(CC)cc2)c(=O)n3Cc2cccc(OC)c2)C1	-4%	2%
Cc1ccn2c(=O)cc(CSc3nnc(C)s3)nc2c1	29%	-34%
COc1cc(CNCCCSc2nnnn2C)cc(Br)c1OC	1%	-3%
Cc1ccc(Nc2c3c(nc4ccccc24)CCC3)cc1F	?	16µM*
CCCn1cnc2cc(NCc3ccccc3OCC)ccc21	-9%	-19%
CN(CC=CC#CC(C)(C)C)Cc1cccc2ccccc12	1%	·
COCCCN1C(=O)c2oc3ccccc3c(=O)c2C12C(=O)N(C)c1ccccc12 (stereo not given)	-13%	-3%
Cc1ccc(CSc2nc3cccnc3n2Cc2ccc(C(=O)NCc3ccco3)cc2)cc1	-12%	-7%
O=C(NC1CCCCC1)c1ccc2c(c1)N(Cc1cccc(Cl)c1)C(=O)c1ccccc1S2(=O)=O	-10%	-33%
COc1ccc(CCN2CCC(CNC(=O)c3cnn(-c4ccccc4)c3C3CCN(C(=O)OC(C)(C)C)CC3)CC2)cc1	-12%	?
Cc1cc(S(=O)(=O)Nc2ccc3oc4c(c3c2)CCCC4)ccc1Cl	7%[11.5 µM]	?
Cc1ccc2oc(=O)c3cc(C(=O)Nc4cccc(C#N)c4)sc3c2c1	-11%	-46%
Cc1cc(C)c(Cn2c(=O)n(CCCCC(=O)NCc3ccccc3Cl)c(=O)c3ccccc32)c(C)c1	-2%	-4%
CCN(C(=O)c1ccc2c(c1)N(Cc1cccc(Cl)c1)C(=O)c1ccccc1S2=O)c1ccccc1 (stereo not given)	?	?
COc1cccc(NC(=O)CN2C(=O)C3(SCC(=O)N3c3cc(C)cc(C)c3)c3ccccc32)c1 (stereo not given)	?	-8%
COc1ccc(Cn2c(=O)n(-c3ccc(F)c(Cl)c3)c(=O)c3c2c2cc(OC)ccc2n3C)cc1	-4%	?
Cc1ccc(S(=O)(=O)N(CC(=O)NCCSc2ccc(Cl)cc2)c2ccccc2C)cc1	?	?
CCCCCCCCCCCCOS(=O)(=O)O	11%	·
O=C(O)c1ccccc1Nc1cccc(C(F)(F)F)c1	8%	·
Oc1c(C(c2ccccc2)N2CCN(Cc3ccccc3)CC2)sc2nc(-c3ccco3)nn12 (stereo not given)	-33%	22%
COCCCNC(=O)CCn1c(=O)c2ccccc2n(CC(=O)Nc2c(C)cc(C)cc2C)c1=O	-3%	-5%
Cc1cccc(-n2nnc(-c3nc(-c4cccs4)no3)c2N)c1	62%[activator]	4%
Cc1ccc(NC(=O)C2CCN(S(=O)(=O)c3cc(-c4noc(C)n4)ccc3C)CC2)c(C)c1	11µM*	?
Cc1ccc2cc3cc(C(=O)N(C)c4ccccc4C)oc3nc2c1	41%[activator]	?
Cc1cc(C)cc(NC(=O)N2CCC(N3CCN(Cc4ccccc4)C(=O)C3=O)CC2)c1	9%	-6%
Cc1cccc(N2CCN(C(=O)Cn3c(-c4cccs4)cc4ccccc43)CC2)c1C	?	?
CCc1cccc(-n2c(=O)c3cccnc3n2CC(=O)Nc2ccc(OC)c(Cl)c2)c1	?	?
COc1ccc(OC)c(C2CC(=O)c3c([nH]c(C(=O)OC4CCC(C)CC4)c3C)C2)c1 (stereo not given)	?	0%
NCC[C@H](O)C(=O)N[C@@H]1C[C@H](N)[C@@H](O[C@H]2O[C@H](CN)[C@@H](O)[C@H](O)[C@@H]2O)[C@H](O)[C@@H]1O[C@H]1O[C@H](CO)[C@@H](O)[C@H](N)[C@@H]1O	-4%[0.739 µM]	·
CCOC(=O)c1cc(CC)sc1NC(=O)COc1ccccc1C	-14%	-6%
COc1ccc(CCNC(=O)c2cnc3ccc(C)cn3c2=O)cc1OC	-8%	-106%
Cc1nn(C)c2c1c(C(F)(F)F)cc(=O)n2CC(=O)N1CCCCC1C (stereo not given)	-2%	?
Cc1cc(NC(=O)c2cccn2-c2nnc(N3CCCCC3)s2)ccc1Br	?	-31%
COc1ccc(NC(=O)Cn2c(-c3ccc(F)cc3)cc(C(C)=O)c2C)c(OC)c1	-17%	-23%
CCc1cccc(NCc2ccccc2-c2nnc(-c3ccccc3Cl)o2)c1	57%[activator]	-11%
O=C(NCc1ccc(Cl)cc1)C(=O)NCC(c1ccc2c(c1)OCO2)N1CCOCC1 (stereo not given)	-16%	-16%
COc1ccc(OCCn2nnc3sc4c(c3c2=O)CCC(C(C)(C)C)C4)cc1 (stereo not given)	-3%	-8%
O=C(COc1ccccc1)Nc1nnc2n1CCS2	7%	-9%
COc1ccc(C2C=C(c3ccccc3)Nc3nc(NC(=O)c4cccc([N+](=O)[O-])c4)nn32)cc1 (stereo not given)	-15%	?
COc1ccc(Cl)cc1NC(=O)CCS(=O)(=O)c1nc(-c2cccs2)cc(C(F)(F)F)n1	?	10µM*
CC(=O)c1ccc(S(=O)(=O)N2CCn3cccc3C2c2ccc(C)cc2)cc1 (stereo not given)	-20%	-14%
Next structures
SMILES	HTT prom inh	PMP22 txn
Cc1ccc(Cl)cc1N1CCN(CCCNC(=O)c2ccc3nc(N4CCCCC4)sc3c2)CC1	?	?
Cc1ccc(C)c(NC(=O)c2cc(S(=O)(=O)N3CCc4ccccc4C3)ccc2F)c1	-4%	-4%
Cc1ccc(-c2nonc2NC(=O)c2ccc(F)cc2)cc1C	?	-7%
COc1ccc(NC(=O)c2c(-c3ccc(C)cc3)nnc3ccccc23)cc1Cl	-29%	-2%
COc1ccc(C(=O)N2CCC(c3nc4ccccc4o3)CC2)cc1	?	-3%
O=C(CSc1nc(=O)[nH]c2c1CCC2)NCc1ccc(Cl)cc1	-9%	-5%
CCOc1ccc2ncc3c(-c4ccccc4)nn(CC(=O)Nc4cccc(F)c4)c3c2c1	10%	9%
CCc1cccc(NC(=O)c2c(C)oc3ncnc(N4CCCCC4)c23)c1	-29%	?
COc1cc(NC(=O)CSc2ccc(-c3ccccn3)nn2)cc(OC)c1	?	?
CCCCOC(=O)/C(C#N)=C\c1ccc(-c2ccc(Cl)cc2)o1	10%	-9%
COc1cccc(CNS(=O)(=O)c2ccc3c(c2)C(C(C)C)C(=O)N3)c1 (stereo not given)	?	-75%
CCOC(=O)c1ccc(N2C(=O)c3n[nH]c(-c4cccs4)c3C2c2cccc(OC)c2)cc1 (stereo not given)	?	?
CCc1ccc(OC(=O)c2sc3ncn(Cc4cccc(F)c4)c(=O)c3c2C)cc1	-6%	9%
COc1ccccc1C1=NS(=O)(=O)N(C)C(C(=O)Nc2cc(OC)c(OC)c(OC)c2)=C1	2%	-1%
Cc1cc(C)cc(NC(=O)N2CCC(CN3CCc4ccccc4C3)CC2)c1	-26%	4%
COC(=O)c1ccccc1NC(=O)CN(c1ccc(Cl)cc1)S(=O)(=O)c1ccc(OC)cc1	-15%	0%
COc1ccc(C)cc1Nc1nc(-c2cccc(Cl)c2)c2c(n1)-c1ccccc1OC2	-13%	-6%
CCOC(=O)C(CC)Sc1ncnc2sc3c(c12)CCCC3 (stereo not given)	-20%	?
Cc1ccc(CNC(=O)CCCCn2c(=O)c3ccccc3n(Cc3c(C)cc(C)cc3C)c2=O)cc1	-9%	8%
CCOc1ccccc1NC(=O)Cn1c(=O)n(CCCC(=O)NCCOC)c(=O)c2cc(OC)c(OC)cc21	-14%	8%

An excerpt of these results, comma-delimited:
molecule,HTT prom inh,PMP22 txn
COc1ccc(C(=O)N2CCC(c3nc4ccccc4o3)CC2)cc1,?,-3%
O=C(CSc1nc(=O)[nH]c2c1CCC2)NCc1ccc(Cl)cc1,-9%,-5%
CCOc1ccc2ncc3c(-c4ccccc4)nn(CC(=O)Nc4cccc(F)c4)c3c2c1,10%,9%
CCc1cccc(NC(=O)c2c(C)oc3ncnc(N4CCCCC4)c23)c1,-29%,?
COc1cc(NC(=O)CSc2ccc(-c3ccccn3)nn2)cc(OC)c1,?,?
CCCCOC(=O)/C(C#N)=C\c1ccc(-c2ccc(Cl)cc2)o1,10%,-9%
COc1cccc(CNS(=O)(=O)c2ccc3c(c2)C(C(C)C)C(=O)N3)c1 (stereo not given),?,-75%
CCOC(=O)c1ccc(N2C(=O)c3n[nH]c(-c4cccs4)c3C2c2cccc(OC)c2)cc1 (stereo not given),?,?
CCc1ccc(OC(=O)c2sc3ncn(Cc4cccc(F)c4)c(=O)c3c2C)cc1,-6%,9%
COc1ccccc1C1=NS(=O)(=O)N(C)C(C(=O)Nc2cc(OC)c(OC)c(OC)c2)=C1,2%,-1%
Cc1cc(C)cc(NC(=O)N2CCC(CN3CCc4ccccc4C3)CC2)c1,-26%,4%
COC(=O)c1ccccc1NC(=O)CN(c1ccc(Cl)cc1)S(=O)(=O)c1ccc(OC)cc1,-15%,0%
COc1ccc(C)cc1Nc1nc(-c2cccc(Cl)c2)c2c(n1)-c1ccccc1OC2,-13%,-6%

The listing picks up, starting two compounds before the break.
SMILES	HTT prom inh	PMP22 txn
Cc1ccc(CNC(=O)CCCCn2c(=O)c3ccccc3n(Cc3c(C)cc(C)cc3C)c2=O)cc1	-9%	8%
CCOc1ccccc1NC(=O)Cn1c(=O)n(CCCC(=O)NCCOC)c(=O)c2cc(OC)c(OC)cc21	-14%	8%
COc1ccccc1N(CC(=O)Nc1ccc2c(c1)OCO2)S(=O)(=O)c1ccc(C)cc1	-21%	3%
CCOC(=O)c1ccccc1NC(=O)CN(c1cc(C(F)(F)F)ccc1Cl)S(C)(=O)=O	?	-6%
COc1ccc(NC(=O)CCn2c(=O)c3cccn3c3ccccc32)c(OC)c1	-2%	?
COc1ccc(-c2noc(N3CCC(C(=O)Nc4cccc(C)c4C)CC3)n2)cc1	2.8µM*	?
CSc1ccc(C2C(C(=O)Nc3ccccc3)=C(C)Nc3nc4ccccc4n32)cc1 (stereo not given)	-3%	?
COCCNc1nc2c(S(=O)(=O)c3ccc(C)c(C)c3)nnn2c2ccc(Cl)cc12	3%	10%
COc1ccc(S(=O)(=O)NCCc2nnc3ccc(SCC(=O)Nc4cc(C)cc(C)c4)nn23)cc1	-12%	?
Cc1cc(NC(=O)CCn2c(=O)c3cccn3c3cccnc32)ccc1Br	3%	?
CN(Cc1ccccc1)C(=O)CSc1nc(-c2ccc(F)cc2)cc(C(F)(F)F)n1	?	?
O=C(Nc1cc(-c2ccc(F)c(F)c2)no1)c1ccccc1F	44%[activator]	-30%
O=C(NCCn1cc(SCc2cccc(F)c2)c2ccccc21)c1cccc(C(F)(F)F)c1	?	?
COc1ccccc1NC(=O)c1sc2nc(-c3cc4ccccc4oc3=O)[nH]c(=O)c2c1C	3%	-25%
Cc1ccc(N2CCN(c3nc4ccccc4n4nnnc34)CC2)c(C)c1	16%	4%
COc1ccc(OC)c(S(=O)(=O)NCCc2sc(-c3ccc(C)cc3)nc2C)c1	-30%	?
O=C(CSc1nnc(-c2ccc(Cl)cc2)o1)c1ccc([N+](=O)[O-])cc1	-20%	?
COc1ccc(S(=O)(=O)NCCc2sc(C)nc2C)cc1F	?	?
Cc1ccc(NC(=O)Cn2c(=O)n(-c3ccc(CC(=O)NCC4CCCO4)cc3)c(=O)c3ccccc32)cc1 (stereo not given)	-4%	-11%
COc1ccc(NC(=O)CCS(=O)(=O)c2nc(-c3cccs3)cc(C(F)(F)F)n2)cc1	?	7.6µM*
c1ccc(C(c2cccs2)c2c[nH]c3ccccc23)cc1 (stereo not given)	-30%	?
CCc1nc2ccc(C(=O)NCc3cccc(Br)c3)cc2nc1CC	-8%	-1%
COc1cccc(-c2nc(CS(=O)(=O)CC(=O)NCc3ccc(C)cc3)c(C)o2)c1	-8%	8%
CCC(Sc1nc2nccnc2c(=O)n1Cc1ccc(OC)cc1)C(=O)NC1CCCCC1 (stereo not given)	-8%	-19%
CCOC(=O)c1cccc(NC(=O)CN2C(=O)CC(C)(C)Sc3ccccc32)c1	-27%	?
Cc1cccc(Cn2nnc(C(=O)Nc3cc(C)ccc3C)c2N)c1	?	?
CC(=O)c1ccc(NS(=O)(=O)c2ccc(Br)s2)cc1	-9%	?
Oc1cccc(-c2nc3ncccn3c2Nc2cccc(C(F)(F)F)c2)c1	-26%	?
COc1ccccc1Cn1cc(C(=O)c2ccccc2)c(=O)c2cc(OC)c(OC)cc21	2%	?
